# HPGD block: inhibitors of human 15-hydroxyprostaglandin dehydrogenase (HPGD). P15428. purified HPGD, NADH fluorescence kinetic, PGE2 substrate. Potency, µM, for inactives: at the highest dose activity change, negative = inhibition, hits mostly inhibitors. 150,000 tested, 4.3% active. AID 894; active = well fitted inhibition curve with a large enough effect (not every such curve was filed as active); inconclusive = small, poorly fitted or top-dose-only effect, or another doubt; inactive = no such curve, though single readings can be large or run the other way;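 note: top concentration of the series not given in the record; plate controls included wells without enzyme; inactives centre near -10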
# Target sequence (P15428 whole entry, looked up): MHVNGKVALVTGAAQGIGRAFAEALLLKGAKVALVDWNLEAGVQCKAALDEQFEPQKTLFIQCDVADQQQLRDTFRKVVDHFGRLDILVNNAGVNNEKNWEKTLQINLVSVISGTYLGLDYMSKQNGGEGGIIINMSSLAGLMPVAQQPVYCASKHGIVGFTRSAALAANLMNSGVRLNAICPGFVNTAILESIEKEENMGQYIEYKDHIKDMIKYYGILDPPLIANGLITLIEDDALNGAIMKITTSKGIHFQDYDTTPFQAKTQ
#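 20 nM HPGD preincubated 15 min at room temperature with compound in 50 mM Tris-HCl pH 8, 0.01% Tween 20. Started with 1 mM NAD+ and 30 uM prostaglandin E2; NADH fluorescence (360/450 nm) read 5 times over 30-s intervals, last minus first.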
# * = called active by the depositor; i = inactive; ? = inconclusive; & = joins results of further samples. % is set by controls: 0 for no effect and ±100 for the full control effect; potency is the fitted concentration of half-maximal effect. A portion of the library, so the mix of outcomes need not match the whole.
SMILES,HPGD block
COC(=O)c1ccc(CNC(=O)COC(=O)CCC2CCCC2)cc1,-21.4%
C=CCn1c2ccccc2c2nnc(SCc3[nH]c(=O)[nH]c3C(=O)CCCCC(=O)OCC)nc21,-19.8%
CCSc1ccc(-c2nn(-c3ccccc3)cc2/C=C(/C#N)C(=O)NCCCOC)cc1,?
CCN1CCN(Cc2nc3c(c(=O)n(C)c(=O)n3C)n2CCc2ccccc2)CC1,0.1%
CCOC(=O)c1c(C)nc2sc3c(=O)n(-c4ccc(OC)cc4)nnc3c2c1-c1ccc(OC)cc1,-11.6%
C/C=C/C1=Cc2ccccc2C(C(C(=O)OC)C(=O)OC)N1C(=O)OC (configuration not stated),-2.5%
CCc1ccc(OCCNC(=O)c2ccccc2SCc2ccc(F)cc2)cc1,-7.6%
CC(=O)CC(=O)Nc1ccccc1NC(C)=O,-6.7%
Cc1nn2c3ccccc3nc2n(C)c1=O,-10.3%
C[C@@H]1NC(=O)c2cc([N+](=O)[O-])cc(I)c2OCC[C@@H](C(N)=O)NC(=O)[C@H](CCC(=O)O)NC1=O,-13.7%
NS(=O)(=O)c1ccc(CCNc2cc(=O)n(Cc3ccc(F)cc3)c(=O)[nH]2)cc1,3.2%
CC(/C=N\NC(=O)c1cc(C)oc1C)=C\c1ccccc1,-10.7%
CC(C)N1CCC2(CC1)N=C(c1ccc3c(c1)OCO3)CC(c1cc(Cl)ccc1O)N2 (configuration not stated),-22.0%
O=C(O)CN(CCN(CC(=O)O)CC(=O)O)CC(=O)O.[Cu],0.5%
COc1ccccc1C(c1nnnn1CCc1ccccc1)N1CCN(c2ccccc2)CC1 (configuration not stated),1.5%
O=C(Cn1c(NCCCO)nc2ccccc21)c1cccc(Br)c1,-25.4%
CCCN1C[C@H](CSC)C[C@H]2c3cccc4[nH]cc(c34)C[C@@H]21,0.2%
Cc1ccc(S(=O)(=O)/C=C\C#N)cc1,3.55µM*
CC(=O)Nc1ccc(Oc2ccc3nc(C)[nH]c3c2)cc1,?
CC1CCCCC1NC(=O)Cn1nc(-c2ccccc2)ccc1=O (configuration not stated),-3.4%
Cc1ccc(C)c(S(=O)(=O)N2C(=S)NC(=O)C2C(C)C)c1 (configuration not stated),-19.4%
Cc1[nH]c2ccccc2c1C(=O)CN1CCN(C/C=C/c2ccccc2)CC1,-9.3%
CCn1cc(C(=O)O)c(=O)c2cc(F)c(N3CCN(S(=O)(=O)c4ccc(Br)cc4)CC3)cc21,?
Nc1ccc2oc(-c3cc(Br)ccc3Cl)nc2c1,-8.8%
O=C(c1nc2ncccn2n1)N1CCN(c2ccccc2)CC1,-1.8%
CCC1CCC(C(=O)NC(C(=O)Nc2ccc3c(c2)OCCO3)C(C)C)CC1 (configuration not stated),-1.3%
Cc1cc([N+](=O)[O-])nn1CCCC(=O)NCc1ccccc1,-7.8%
CC(C)C(=O)Nc1ccc([N+](=O)[O-])cc1Br,-3.5%
CC(C)CC(=O)N=C1SC2CS(=O)(=O)CC2N1Cc1ccccc1 (configuration not stated),-4.0%
Cc1ccccc1OCCN1C(=O)c2ccccc2C1=O,28.2µM*
COCCNC(=O)CCSc1nc(-c2ccc(OC)cc2)cc(C(F)(F)F)n1,?
Cn1c2ccc(CC(=O)O)cc2c2cc(CC(=O)O)ccc21,?
Fc1ccc(-c2cc(C(F)(F)F)nc(NCC3CCCO3)n2)cc1 (configuration not stated),?
CCCCN(C(=O)c1cc2ccccc2o1)c1c(N)n(CCC)c(=O)[nH]c1=O,1.4%
CCOC(=O)c1cnc(-n2nc(C)cc2C)nc1Nc1ccc2c(c1)OCO2,-6.2%
Cc1cccc(C)c1NC(=O)c1ccc(CN2CCc3ccccc3C2)cc1,-13.7%
Cc1ccnc(NS(=O)(=O)c2ccc(N=CC3=C(O)CC(C)(C)CC3=O)cc2)n1,-22.8%
CC1CCN(c2ccc(C(=O)NCc3ccc4c(c3)OCO4)cc2[N+](=O)[O-])CC1,-16.1%
O=C1CC(c2ccc(S(=O)(=O)NC3CC3)cc2)CN1 (configuration not stated),-9.2%
COc1ccc(NC(=O)c2ccccc2O)c(OC)c1,-18.6%
O=[N+]([O-])c1nn(-c2ccc3c(c2)OCCO3)n(O)c1=NC1CCCC1,-15.9%
CC1=CCC2C(=O)N(Cc3ccccc3)C(=O)C2C1 (configuration not stated),-9.3%
COc1ccc(-c2nnc(NC(=O)C(C)C)s2)c(OC)c1,?
COc1ccc(C)cc1NC(=O)c1nnn(Cc2cc(C)ccc2C)c1N,i
COc1ccc(-c2nnc(SCC(=O)Nc3cc(C)on3)n2C)cc1OC,4.6%
CN(C)C(=O)CSc1nnc([C@H](Cc2c[nH]c3ccccc23)NC(=O)OC(C)(C)C)o1,-0.5%
CCCCOc1ccccc1C1C(C(N)=O)=C(C)Nc2nnnn21 (configuration not stated),-8.9%
CCOc1cc(/C=C2/C(=O)ON=C2C)ccc1OCc1ccccc1F,1.58µM*
COc1ccc(C)cc1NC(=O)CCS(=O)(=O)c1cccc2nonc12,-3.1%
Fc1ccc(CSc2ncnc3c2oc2ccccc23)cc1,?
# New compounds follow
SMILES,HPGD block
CCCCNC(=O)N(C)c1nncnc1C(=O)NC,-0.4%
Cc1nnc2n(-c3ccccc3)c(=O)c3c4c(sc3n12)CCCC4,-3.4%
O=C(NCCc1ccccc1)c1ccco1,-20.3%
O=C(Nc1ccn(Cc2ccccc2F)n1)c1ccc(COc2ccc(Br)cc2)cc1,?
CCCCC(=O)NC1(C(F)(F)F)C(=O)Nc2c1c(=O)n(C)c(=O)n2C (configuration not stated),2.5%
CC(C)CCNC(=O)CN(C(=O)CCC(=O)Nc1ccccn1)c1ccc2c(c1)OCO2,-10.2%
COc1ccc(-c2nc(-c3ccccc3)c(NC(C)(C)C)o2)cc1,-4.6%&-0.9%
CN(C)CCOc1ccc2c(c1)Sc1ccccc1CC2=O,-6.6%
O=C(NCCN1CCOCC1)c1cn(-c2ccccc2)nc1-c1cccs1,-12.2%
C=CCNC(=O)Nc1ccc(Cl)cn1,-5.7%

# Quoted from the listing:
# HPGD block, `CCCCC(=O)NC1(C(F)(F)F)C(=O)Nc2c1c(=O)n(C)c(=O)n2C` (configuration not stated) stands at 2.5%
# HPGD block, `O=C(NCCc1ccccc1)c1ccco1` stands at -20.3%
# HPGD block, `Cc1nnc2n(-c3ccccc3)c(=O)c3c4c(sc3n12)CCCC4` stands at -3.4%

# The list continues.
SMILES,HPGD block
COc1cccc(NC(=O)OCCN2CCN(Cc3ccccc3)CCC2=O)c1,-7.9%&-8.0%
Cc1ccc(NC(=O)Cn2nnc(C(=O)NCc3cccs3)c2N)cc1,-1.6%
O=C(COC(=O)Cc1ccc(S(=O)(=O)N2CCCCC2)s1)Nc1ccc2c(c1)OCO2,-18.9%
CCc1ccc(CNCc2cccnc2)cc1,-17.4%
CCOc1ccccc1N(C(=O)Cn1nnnc1-c1ccc(C)o1)C(CC)C(=O)NC(C)(C)C (configuration not stated),-12.4%
O=C1Nc2ncccc2OC1CCO (configuration not stated),-11.9%
Cc1ccc(C(C(=O)NC2CCCCC2)N(Cc2ccccc2)C(=O)Cc2c[nH]c3ccccc23)o1 (configuration not stated),-15.8%
CC(C)N(CCc1ccncc1)C(=O)Nc1ccc(Cl)c(Cl)c1,-14.9%
Cc1cc2c(N=O)c(NO)ccc2[nH]1,-7.7%
Cc1ccccc1C(=O)Nc1ccc(Br)c(C)n1,-19.8%
COCC(C)NC(=O)CCS(=O)(=O)c1nc(-c2ccc(OC)cc2)cc(C(F)(F)F)n1 (configuration not stated),-26.3%
CCCCCOC(=O)C1C(c2ccccc2)C(C(=O)O)C1c1ccccc1 (configuration not stated),3.4%
Cc1ccc(SCC(=O)Nc2ccc(S(=O)(=O)Nc3nccs3)cc2)cc1,-23.0%
NC(=O)c1cccc(S(=O)(=O)N2CCCCC2)c1,-12.3%
COc1ccccc1NC(=O)c1cccnc1,-13.3%
Cc1nn(C(C)C(=O)N2CCc3ccccc3C2)c(=O)c2cc3occc3n12 (configuration not stated),-21.7%
COc1ccc(/C=N/N=C2/NC(=O)CC(C(=O)O)S2)cc1 (configuration not stated),-11.6%
CC(=O)Nc1ccc(OCC(O)CN2CCN(c3ccccc3Cl)CC2)cc1 (configuration not stated),2.1%
COc1ccc(Cc2nc(-c3ccc(Cl)cc3)no2)cc1,-2.5%
CCOC(=O)CCNC(=O)Nc1ccc2nc(C)n(Cc3ccc(Cl)cc3)c(=O)c2c1,-22.2%
COc1cc(C(=O)O)cc(Br)c1OC1CCCC1,-9.2%
O=C(NCc1ccc2c(c1)OCO2)c1cccc(S(=O)(=O)N2CCCCC2)c1,-7.9%
Cc1ccc(N=C(NO)c2nonc2N)cc1,-20.7%
COc1cc(C(=O)N2CCN(c3cccc(C)c3C)CC2)cc(OC)c1OC,-9.7%
CC(C)c1ccc(NC(=O)COC(=O)/C=C/c2cccc([N+](=O)[O-])c2)cc1,-6.9%
CCOc1ccccc1C1CC(c2ccc(F)cc2)Nc2nc(N)nn21 (configuration not stated),-18.0%
Cc1ccc(C(=O)NCCn2cc(SCC(=O)N3CCOCC3)c3ccccc32)cc1,-6.2%
Cc1ccc2cc3cc(C(=O)NCc4ccco4)oc3nc2c1,?
COc1ccc(N2CC(O)=C(c3nc4ccccc4s3)C2=N)c(OC)c1,?
CCOC(=O)c1ccccc1NC(=O)c1cncc(Br)c1,-25.2%

# Pulled by compound from above, six records:
SMILES,HPGD block
CCOc1ccccc1C1CC(c2ccc(F)cc2)Nc2nc(N)nn21 (configuration not stated),-18.0%
COc1ccc(N2CC(O)=C(c3nc4ccccc4s3)C2=N)c(OC)c1,?
COc1cc(C(=O)N2CCN(c3cccc(C)c3C)CC2)cc(OC)c1OC,-9.7%
Cc1ccc2cc3cc(C(=O)NCc4ccco4)oc3nc2c1,?
Cc1ccc(N=C(NO)c2nonc2N)cc1,-20.7%
COc1cc(C(=O)O)cc(Br)c1OC1CCCC1,-9.2%

# Sorted by count of non-hydrogen atoms (smallest number first): three of the compounds above.
SMILES,HPGD block
COc1cc(C(=O)O)cc(Br)c1OC1CCCC1,-9.2%
Cc1ccc2cc3cc(C(=O)NCc4ccco4)oc3nc2c1,?
O=C(NCc1ccc2c(c1)OCO2)c1cccc(S(=O)(=O)N2CCCCC2)c1,-7.9%

# Next section.
SMILES,HPGD block
CCOc1ccc(C(=O)NC(=S)N2CCN(c3ccc(C(F)(F)F)cc3[N+](=O)[O-])CC2)cc1,-13.7%
CCOc1ccccc1OCCOc1ccccc1OC(C)C,-10.5%
COCCCNC(=O)C1CCCN(S(=O)(=O)c2ccc(C)cc2)C1 (configuration not stated),-15.6%
O=C(NCCCCC(NC(=O)C1CCCCC1)C(=O)O)c1ccccc1 (configuration not stated),1.7%
CCCc1nn(C)c(C(=O)Nc2cccc(C)c2)c1Cl,-3.7%
Cc1ccc(N2C(=O)CC(Sc3ccccc3C(=O)O)C2=O)cc1 (configuration not stated),-6.3%
O=C(CC(SCc1ccco1)c1ccc(O)cc1)c1cccs1 (configuration not stated),-13.2%
CN(C(=O)COC(=O)c1ccc2c(c1)OCO2)C1CCS(=O)(=O)C1 (configuration not stated),-13.6%
CC(=O)C1=C(C)NC(SCSc2ccccc2)=C(C#N)C1c1cccnc1 (configuration not stated),-14.1%
Cc1onc(-c2ccccc2)c1C(=O)NCC1CCN(C(=O)c2c(-c3ccccc3)noc2C)CC1,-13.4%
Cc1cc(=O)n2[nH]c(-c3ccc(F)cc3)nc2n1,-23.3%
CCCCN(CC)C(=O)Cn1ncc2c1-c1cc(C)ccc1OC2,-6.1%
CCn1c(SCC(=O)N2CCCC2)nnc1-c1ccc(S(=O)(=O)N2CCCCCC2)cc1,-27.5%
Cc1cc(C)n(-c2ccc(Cl)c(C(=O)Nc3ccc(-c4nnc5n4CCCCC5)cc3)n2)n1,1.78µM*
Cc1nc(=O)c(-c2ccccc2)c(C)n1-c1ccc(S(N)(=O)=O)cc1,-8.9%
Cc1ccc(C)n1-c1ccc(C(=O)O)cc1,?
Cc1cc(C(F)(F)F)nn1CC(=O)Nc1ccc(Br)c2cccnc12,-14.3%
CCCCNC(=O)CCNC(=O)c1ccc(C(C)(C)C)cc1,-2.8%
Cc1ccc(O)c(C(=O)c2cnc3c(c2)CN(C)C(=O)N3)c1,28.2µM*
CSc1nc2c(ccc3ccccc32)o1,-10.4%
O=C(Nc1ccccc1)OC1CCS(=O)(=O)C1 (configuration not stated),-8.7%
Cn1nnnc1SCC1=C(C(=O)O)N2C(=O)C(NC(=O)C(O)c3ccccc3)C2SC1 (configuration not stated),?
COc1ccc(C(=O)N(Cc2nc(-c3ccc(C)cc3)no2)C2CCCCC2)cc1OC,-12.6%
Cc1ccc(-n2c(C)nc3c(cnn3-c3ccccc3Cl)c2=O)cc1C,-5.0%
CCOc1ccc(-c2cc(CCCC(=O)N3CCN(c4ccc(OC)cc4)CC3)no2)cc1,-23.7%
C/C(=N\NC(=O)c1c(Cl)cnn1C)c1ccc(NC(=O)c2ccncc2)cc1,?
Nc1nc(SCc2c(Cl)cccc2Cl)n[nH]1,-20.0%
O=C(c1ccc(S(=O)(=O)N2CCC(c3nc4ccccc4[nH]3)CC2)cc1)N1CCOCC1,-0.4%
COc1ccc2nc(SCc3cnc(C)nc3N)[nH]c2c1,-6.2%
O=C(CN1C(=O)C2C3C=CC(C3)C2C1=O)Nc1nc(-c2ccccn2)cs1 (configuration not stated),-7.6%
Cc1ccc(NC(=S)NCc2ccccc2)cc1[N+](=O)[O-],12.6µM*
Cc1ccc(Cn2cc(/C=C/C(=O)O)c(-c3ccccc3)n2)cc1,-3.5%
O=C(Nc1nc2ccc(SC(F)F)cc2s1)c1ccc(NS(=O)(=O)c2ccc(F)c(F)c2)cc1,?
O=C1c2ccccc2C(=O)N1OCc1cccc(Cl)c1,-2.1%
CCOC(=O)CN1CC23C=CC(O2)C(C(=O)NCc2ccccc2OC)C3C1=O (configuration not stated),-10.7%

# Bioassay records from PubChem.
